TRPML1 ag – activates the human TRPML1 channel; TRPML1-expressing cells, Ca2+ dye fluorescence, FDSS; host cell line not named in the record; reference of the full effect not given here; activation, % (test concentration not listed); 0.12% of 410,000 active; AID 624414; in the data active = activation above about 50%; inconclusive = about 30% to 50%; inactive = below about 30%; note: 0% is about no effect; the text of the record puts the active cut at 80%
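Calcium fluorescence on an FDSS kinetic reader gave the read-out. Tet-induced TRPML1-DL cells were plated overnight, dye-loaded (Ca8 with quencher, 45-90 min, room temperature, dark), then read 110 s after compound addition, and again 110 s after 4uM final 54-4 (EC80).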
D2 agonist – human D2 receptor agonism in beta-arrestin assay; activation, % (no concentration beside the values); P14416; 0.084% of 360,000 active; DiscoveRx PathHunter D2 beta-arrestin, luminescence, 90 min; 100% = 57 uM dopamine signal; AID 624465; in the data active = activation above about 40%; inconclusive = about 15% to 40%; inactive = below about 15%; note: compound concentration not given in the record; the text of the record calls up to 30% inactive
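DiscoveRx PathHunter D2 beta-arrestin cells (2,100/well) attached overnight, then compound-stimulated 90 min at 37 C in HBSS/10 mM HEPES/0.1% Tween-20 buffer; beta-galactosidase complementation read by luminescence after 1 h at ambient temperature. Dopamine 57 uM final (EC100) as control.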
CtBP-E1A blk – blocks the CtBP interaction with E1A; AlphaScreen GST-E1A/His-CtBP binding, 1536-well; stronger effect = lower value; control for the full effect not named in the record; activity change, % (concentration not given with the values); 0.49% of 340,000 active; AID 651724; in the data active means activity change below about -65%; inconclusive means about -30% to -65%; inactive means above about -30%; note: % is set by controls: 0 for no effect and ±100 for the full control effect
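GST-E1A and His-tagged CtBP (125 nM each as 5X stock) were preincubated with pin-transferred compound for 2 h at 37 °C in the dark, then glutathione donor and nickel acceptor beads were added for 1 h before AlphaScreen reading.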
PINK1 modulator – changes PINK1 expression; AID 624263; Potency, µM (highest dose often 76.6 µM), for inactives: top-dose activation (PINK1 increase), hits mostly activators; 0.2% of 410,000 active; PINK1 immunofluorescence, high-content cytometry, 24 h; active = well fitted activation curve with a large enough effect; inconclusive = small, poorly fitted or top-dose-only effect; inactive = flat fitted curve, though single readings scatter; cell line not stated here;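 note: potency is the fitted concentration of half-maximal effect; % of control where 0% means no effect; nearly all actives have a fitted effect of over 65% in size; a mitochondrial uncoupler was the plate control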
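PINK1 protein, normally rapidly degraded, was detected by immunofluorescence after 24 hour compound treatment of a stable cell line. Titration data (5 concentrations) came from laser-scanning cytometry, with CCCP-treated wells as controls.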
Six1-Eya2 inh – inhibitors of human Six1/Eya2 interaction; AlphaScreen GST-Six1/His-Eya2 binding, biochemical; stronger effect = lower value; control for the full effect not named in the record; activity change, % (no concentration beside the values); 0.56% of 360,000 active; AID 651725; in the data active = activity change below about -65%; inconclusive = about -30% to -65%; inactive = above about -30%; note: % is set by controls: 0 for no effect and ±100 for the full control effect; compound concentration not given in the record
Target sequence (O00167 whole entry, looked up): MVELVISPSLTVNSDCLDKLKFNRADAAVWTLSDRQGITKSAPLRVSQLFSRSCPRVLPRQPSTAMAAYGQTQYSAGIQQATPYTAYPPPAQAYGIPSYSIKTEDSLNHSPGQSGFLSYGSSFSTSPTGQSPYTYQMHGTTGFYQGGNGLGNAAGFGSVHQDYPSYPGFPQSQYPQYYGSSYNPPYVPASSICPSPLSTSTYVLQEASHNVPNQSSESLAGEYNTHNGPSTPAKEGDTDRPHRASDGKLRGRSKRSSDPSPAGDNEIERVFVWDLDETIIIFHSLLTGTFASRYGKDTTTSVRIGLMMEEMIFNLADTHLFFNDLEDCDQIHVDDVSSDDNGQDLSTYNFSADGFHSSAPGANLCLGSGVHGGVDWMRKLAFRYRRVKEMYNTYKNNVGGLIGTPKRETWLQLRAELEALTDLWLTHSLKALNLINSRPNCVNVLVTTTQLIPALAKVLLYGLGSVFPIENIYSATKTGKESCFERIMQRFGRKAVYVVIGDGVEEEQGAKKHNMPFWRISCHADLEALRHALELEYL
Target sequence (Q15475 whole entry, looked up): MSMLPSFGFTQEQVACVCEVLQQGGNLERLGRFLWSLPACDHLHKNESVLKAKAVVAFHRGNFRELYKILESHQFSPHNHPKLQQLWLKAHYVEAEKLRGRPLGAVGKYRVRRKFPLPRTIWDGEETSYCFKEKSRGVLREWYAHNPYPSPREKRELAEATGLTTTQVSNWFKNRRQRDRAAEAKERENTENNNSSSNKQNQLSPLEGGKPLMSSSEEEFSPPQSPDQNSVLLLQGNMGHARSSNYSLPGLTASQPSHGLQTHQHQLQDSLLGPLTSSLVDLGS
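AlphaScreen with GST-Six1 and His-Eya2 (5X mix: 250 nM and 500 nM), glutathione donor and nickel acceptor beads; buffer 50 mM Tris pH 8.0, 300 mM NaCl, 1 mM TCEP; 1 h at 37 C in the dark.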
D2 PAM – potentiates the human D2 dopamine receptor allosterically | DiscoveRx D2 beta-arrestin cells, luminescence, 90 min; 100% = 57 uM dopamine signal | potentiation, % (no concentration beside the values) | 0.23% of 360,000 active; active = potentiation of 50% or more; inconclusive = 30% to 50%; inactive = 30% or less;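 note: compound concentration not given in the record; tested on top of an EC20 dose of dopamine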
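PathHunter beta-arrestin assay in DiscoveRx D2 cells. Compounds were added with an EC20 of dopamine (50 nM final) for 90 min at 37 deg C. Luminescence was read 1 h after detection reagent, with 57 uM dopamine as the EC100 control.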
An asterisk follows results filed as active; ? = inconclusive; · = not tested or not shown; [ ] = dose if it differs, or a comment.

1: CC1CCCC(C)N1/N=C/c1ccccc1Br (stereo not given)
2: COc1ccc(S(=O)(=O)N(C)C[C@H]2Oc3ccc(NC(=O)c4ccncc4)cc3C(=O)N([C@H](C)CO)C[C@@H]2C)cc1
3: CC(NCCOc1ccccc1F)C(=O)Nc1ccc(S(N)(=O)=O)cc1 (stereo not given)
4: Cc1ccsc1-c1nc(CN2C[C@@H](C)O[C@@H](C)C2)c(C)o1
5: CC(NC(=O)C(=O)N1CCCCC1)C(c1cccs1)N1CCN(c2ccccc2F)CC1 (stereo not given)
6: COc1ccc(NC(=O)CN(C)Cc2cccs2)cc1Cl
7: COc1ccc(N2CCN(S(=O)(=O)c3ccc4c(c3)NC(=O)C(C)C(=O)N4)CC2)cc1 (stereo not given)
8: O=c1cn[nH]c2ccccc12
9: CC1(C)NC(=O)N(CCCCOc2ccc(Cl)cc2C=O)C1=O
10: Cc1ccccc1N1C(=O)C2ON(c3ccccc3)C(c3ccncc3)C2C1=O (stereo not given)

compound no.	1	2	3	4	5	6	7	8	9	10
Six1-Eya2 inh	0	0	0	-1	2	2	1	1	-3	-1
CtBP-E1A blk	-18	0	·	5	-12	-6	-7	0	·	2
PINK1 modulator	14%	0.7%	0.5%	5.3%	-1.3%	0.3%	1.6%	0.4%	2.8%	-0.9%
D2 PAM	-6	·	-4	-26	-14	-9	-1	2	5	14
D2 agonist	1.6	-0.1	1.8	0.4	-0.4	-4.3	-1.9	2.4	-1.8	2.0
TRPML1 ag	-1.1	-0.7	-0.3	0.6	-0.1	-0.3	0.4	1.1	3.3	-1.1

Copied from the list.
entry 6 | D2 PAM: -9
entry 1 | TRPML1 ag: -1.1
entry 2 | PINK1 modulator: 0.7%
entry 9 | D2 PAM: 5
entry 7 | CtBP-E1A blk: -7
entry 5 | TRPML1 ag: -0.1
entry 10 | TRPML1 ag: -1.1

The listing continues.
11: Cc1ccc(-c2csc3ncnc(NS(=O)(=O)c4ccc(Cl)cc4)c23)cc1
12: Cc1ccc(S(=O)(=O)NC(=O)N(CCC#N)Cc2ccccc2)cc1
13: Cn1c(SCC(=O)NC2CCS(=O)(=O)C2)nc2ccccc21 (stereo not given)
14: Cc1cc(OCC(F)(F)C(F)(F)C(F)(F)C(F)(F)C(F)(F)C(F)F)nc(N)n1
15: COC(=O)[C@@H](Cc1ccccc1)NC(=O)[C@H]1O[C@@H](n2cnc3c(N)ncnc32)[C@H](O)[C@@H]1O
16: NC1=NC(c2ccc(Cl)cc2)N(c2ccc(S(N)(=O)=O)cc2)C(N)=N1 (stereo not given)
17: CSc1nc(N(C)CCO)c2sc3nc(-c4ccco4)c4c(c3c2n1)CCC4
18: COCCCNC(=S)NNC(=O)c1cc(Cl)c(O)c(Cl)c1
19: Nc1ccc(Nc2nc(-c3cccs3)cs2)cc1
20: CCCC1=Nc2cc(C(=O)NCCCN3CCOCC3)ccc2Sc2ccccc21

compound no.	11	12	13	14	15	16	17	18	19	20
Six1-Eya2 inh	11	4	-2	0	2	-2	?	2	-4	9
CtBP-E1A blk	14	0	-24	3	8	·	-25	-17	4	1
PINK1 modulator	-0.7%	0.5%	-0.9%	9.5%	2.1%	1.3%	-0.5%[38.3 µM]	0.7%	1.4%	2.3%
D2 PAM	-8	0	-5	-7	-2	-5	1	-11	-2	-16
D2 agonist	1.5	1.6	-1.3	1.1	6.3	-1.7	-0.9	-5.0	4.0	2.6
TRPML1 ag	2.3	0.9	-0.4	-0.6	-0.8	0.2	-0.1	-0.4	0.0	-1.0

21: CC1(c2nnc(-c3cccc(Cl)c3)o2)CC(c2cccc([N+](=O)[O-])c2)=NO1 (stereo not given)
22: Cc1cc(N/N=C2/CCCc3ccccc32)nc2ccccc12
23: CCCC(C(=O)NC1CCCC1)N(CCN(CC)CC)C(=O)c1snc(C(N)=O)c1N (stereo not given)
24: O=C1CCCCC1Sc1ccc(Cl)cc1[N+](=O)[O-] (stereo not given)
25: CC(=O)N(C(C)=O)N1C(=O)/C(=C/c2ccc(Cl)cc2)SC1=S
26: CCOC(=O)CNC(=S)N(CCCN1CCCCC1)Cc1cccs1
27: COc1ccc(NC(=O)CN2C(=O)NC(C)(C3CCCCC3)C2=O)c(OC)c1 (stereo not given)
28: N#C/C(=C\c1ccc(-c2ccc(Br)cc2)o1)C(=O)NCCc1c[nH]c2ccccc12
29: CCOC(=O)Cc1[nH]nc2c1C(c1cccc(OC)c1OC)C(C#N)=C(N)O2 (stereo not given)
30: CN(C)c1cccc(C(=O)OCC(=O)N(Cc2ccccc2)C2CCS(=O)(=O)C2)c1 (stereo not given)

compound no.	21	22	23	24	25	26	27	28	29	30
Six1-Eya2 inh	7	0	4	-7	-10	12	-8	-17	5	-6
CtBP-E1A blk	1	2	0	-5	-22	5	9	-3	-1	0
PINK1 modulator	2.9%	11%	2.1%	-0.6%	-0.7%	-0.1%	4.1%	2.9%	0.7%	-1.9%
D2 PAM	-25	-5	-6	-2	-9	-22	-13	-11	5	-2
D2 agonist	-0.2	4.7	-4.9	9.0	-7.3	-0.4	-5.4	-3.5	-2.1	3.2
TRPML1 ag	-0.6	2.8	0.7	1.5	0.0	1.5	-0.1	1.7	0.6	-0.4

31: Cc1ccc(OCc2cc(C(=O)NC3CCOC3)no2)cc1C (stereo not given)
32: CS(=O)(=O)NCCC1=CCCCC1
33: COCCNC(=O)c1onc(CS(=O)(=O)c2cc(C)cc(C)c2)c1C(=O)NCCOC
34: CC(=O)Oc1cc2c(cc1Cl)C1(CC(c3ccccc3Cl)O2)CC(C)(C)NC(=S)N1 (stereo not given)
35: O=C(O)c1cc(S(=O)(=O)NCCCN2CCCC2=O)ccc1Cl
36: Cc1ccc(N2C(=O)C(Cl)=C(Nc3c(C)n(C)n(-c4ccccc4)c3=O)C2=O)cc1
37: C#CCNC(=O)C[C@@H]1C[C@@]2(C(=O)OCC)CCCC=C2N(Cc2ccco2)C1=O
38: C[C@H](CO)N1C[C@H](C)[C@@H](CN(C)C(=O)c2cnccn2)Oc2cc(C#CCC3CCCC3)ccc2S1(=O)=O
39: Nc1cc(=O)[nH]c(SCC(=O)Nc2cc(S(=O)(=O)N3CCCCC3)ccc2Cl)n1
40: COc1cc(NC(=O)c2ccccc2)c(OC)cc1NC(=O)CN1C(=O)NC2(CCCCC2C)C1=O (stereo not given)

compound no.	31	32	33	34	35	36	37	38	39	40
Six1-Eya2 inh	7	0	-3	-28	0	-3	3	-1	-8	3
CtBP-E1A blk	·	4	-3	-20	6	3	-3	3	-10	13
PINK1 modulator	0.5%	-0.6%	-0.7%	4.0%	0.5%	·	-0.7%	0.5%	-1.9%	-1.1%
D2 PAM	-1	18	-9	6	-8	-2	·	·	3	-3
D2 agonist	-7.4	-1.5	-3.8	-7.5	1.8	-1.7	·	-6.4	-0.9	0.3
TRPML1 ag	2.0	-0.6	-0.7	3.0	0.4	-0.1	-0.6	·	-0.1	0.3

Random excerpt: two entries already listed
38: C[C@H](CO)N1C[C@H](C)[C@@H](CN(C)C(=O)c2cnccn2)Oc2cc(C#CCC3CCCC3)ccc2S1(=O)=O
36: Cc1ccc(N2C(=O)C(Cl)=C(Nc3c(C)n(C)n(-c4ccccc4)c3=O)C2=O)cc1

compound no.	38	36
Six1-Eya2 inh	-1	-3
CtBP-E1A blk	3	3
PINK1 modulator	0.5%	·
D2 PAM	·	-2
D2 agonist	-6.4	-1.7
TRPML1 ag	·	-0.1

(list continues)
41: O=C(O)CCCNC(=O)c1ccc(NC(=O)Cc2ccc(Cl)cc2)cc1
42: CN1N=C(C(C)(C)C)CSC1=Nc1ccccc1
43: COc1cc(CCCN2CCNC[C@H]2Cc2cccc3ccccc23)cc(OC)c1OC
44: CCOC(=O)C1(Cc2cccc(OC)c2)CCCN(C(=O)c2cc(C)on2)C1 (stereo not given)
45: CSc1ncccc1C(=O)OCc1ccc(C#N)cc1
46: CC(C(=O)N(C)C1CCCCC1)N1CCC(C(N)=O)CC1 (stereo not given)
47: CC(C)NC(=O)C1(C)CCN1C(=O)c1ccccc1Oc1ccccc1 (stereo not given)
48: CC(O)CN(CCC(N)=O)CCC(N)=O (stereo not given)
49: Cc1ccc(NNC(=O)c2ccno2)cc1C
50: CC(=O)c1cccc(NC(=O)CC2S/C(=N/N=C/c3cccs3)NC2=O)c1 (stereo not given)

compound no.	41	42	43	44	45	46	47	48	49	50
Six1-Eya2 inh	-3	11	-9	-1	0	6	17	5	-8	-4
CtBP-E1A blk	1	3	-2	12	6	8	4	10	0	-6
PINK1 modulator	2.1%	7.5%	0.1%	-0.8%	-0.2%	1.1%	0.3%	-2.2%	-0.1%	3.6%
D2 PAM	0	-3	-52	-3	-5	-2	-4	-13	-34	0
D2 agonist	-1.3	3.0	-0.7	-4.3	0.7	0.4	-4.7	-1.8	-15	-2.5
TRPML1 ag	0.3	0.7	-0.1	2.1	0.0	0.4	-0.9	4.9	0.2	0.1

51: C=CCNC(=S)NNC(=O)C(CCC(C)C)CC(C)O (stereo not given)
52: COc1ccccc1C1SCCN1C(=O)c1ccc([N+](=O)[O-])cc1 (stereo not given)
53: COc1ccccc1NC(=O)c1cc(N2C(=O)C3C4CCC(C4)C3C2=O)ccc1Cl (stereo not given)
54: COc1ccccc1CC(=O)Nc1ccc([N+](=O)[O-])cc1OC
55: CC(=O)Nc1ccc2c(c1)ncn2C1CCCCC1

compound no.	51	52	53	54	55
Six1-Eya2 inh	8	-3	1	-9	-6
CtBP-E1A blk	4	-8	2	-3	5
PINK1 modulator	1.2%	1.3%	-0.3%	0.1%	0.2%
D2 PAM	2	2	-7	-11	-13
D2 agonist	2.0	-2.8	0.6	3.0	-4.6
TRPML1 ag	1.8	0.7	0.5	2.8	0.3

Reformatted: 2 of the compounds above.
Screens in order: Six1-Eya2 inh, CtBP-E1A blk, PINK1 modulator, D2 PAM, D2 agonist, TRPML1 ag
12) Cc1ccc(S(=O)(=O)NC(=O)N(CCC#N)Cc2ccccc2)cc1
→ 4, 0, 0.5%, 0, 1.6, 0.9
31) Cc1ccc(OCc2cc(C(=O)NC3CCOC3)no2)cc1C (stereo not given)
→ 7, ·, 0.5%, -1, -7.4, 2.0

Source: PubChem BioAssay (National Center for Advancing Translational Sciences (NCATS))
